# PrP 5UTR inh – inhibition of PrP 5' UTR reporter expression; cell-based PrP 5' UTR mRNA reporter, plate reader; inhibition, % (test concentration not listed); hit rate 0.35% among 340,000; AID 488862;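 active = every replicate at 50% or more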;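 note: 0 = median of the neutral control wells; tested in H4 reporter cells; numbers are from one replicate; inactives centre near -14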
# BJeLR viability – BJeLR cell viability loss; BJeLR (HRASV12) viability, CellTiter-Glo ATP luminescence, 48 h; reference of the scale not given here; inhibition, % (test concentration not listed); hit rate 0.17% among 300,000; AID 1554;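 active = replicate mean above 50%; inconclusive = above 50% but judged a plate artefact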;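 note: 50 nL library stock added to about 25 µL; numbers are from one replicate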
# Mtb hypoxia rep – Mtb hypoxia fluorescent reporter inhibition; M. tuberculosis hypoxia-regulated fluorescent reporter, fluorescence; AID 1159583; hit rate 0.1% among 300,000; fluorescence inhibition, % (concentration not given with the values);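 active = 35 to 45% if threefold the growth effect, above 45% if 1.5-fold the growth effect; inactive = the rest, general growth blockers included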;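 note: wells of about 50 µL received 100 nL stock; 0% = vehicle wells and 100% = reference inhibitor wells; whole bacteria with a GFP reporter of the hypoxia response; strong numbers were not always called active; many hits fall short of the cut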
# Sa RN4220 lethal – S. aureus RN4220 growth inhibition; inhibition, % (no concentration beside the values); OD600, 16 h; hit rate 0.33% among 330,000;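 active = z-score of -3 or lower and OD600 up to 0.18 on both plates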;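 note: plate controls were untreated cells for no effect and reference antibiotic for full effect; stock transfer was 100 nL into about 80 µL; one replicate is shown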
# Bead autofluor – flagged as autofluorescent in microsphere protease counterscreen. compound autofluorescence counterscreen, microsphere flow cytometry; active compounds read high. fluorescence intensity (no concentration beside the values). hit rate 3.1% among 360,000;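 active = at least 3 SD above the mean of all compounds, about 16000 in these data; inconclusive = too few beads counted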;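 note: 100 nL of 1 mM stock went into each well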
# Sa ugtP lethal – compounds lethal to S. aureus RN4220 ugtP deletion mutant. OD600 growth, 16 h; some inactives read as strong as hits. growth inhibition, % (no concentration beside the values). hit rate 0.54% among 330,000. AID 1259309;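 active = z-score under -3 and OD600 up to 0.15 on both plates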;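 note: plate controls were untreated wells for no effect and antibiotic for full effect; wells of about 80 µL received 100 nL stock; the first replicate is given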
# Mtb hypoxia rep growth – recorded beside Mtb hypoxia rep, whose call it bears; growth inhibition, %; measured here: M. tuberculosis growth (absorbance);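 0% = vehicle and 100% = reference antibiotic; read after six days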
# Starred values were filed as active, the others as inactive; ? = inconclusive; / = no result given. Not a hit list; overall some 4% were active at least once.
1. Cc1c(Cl)cccc1NC(=S)N1CCN(c2ccc([N+](=O)[O-])cn2)CC1
2. Cn1c(Cl)c(C=NOC(=O)C(C)(C)C)c2ccccc21
3. Nc1nc(CSc2nnnn2-c2ccccc2)nc(N2CCCc3ccccc32)n1
4. O=C(N/N=C/c1ccc(OC(=O)c2ccc(Br)cc2)cc1)c1ccncc1
5. Cc1ccc(/C=N/OC(=O)c2nn(C)cc2Cl)cc1
6. COc1ccc(-c2c(-c3ccccc3OC)sc3ccccc23)cc1
7. COc1ccc(Cl)cc1NC(=O)c1cccnc1
8. COc1cccc(NC(=S)NN=C2CC(C)(C)Oc3ccc(O)cc32)c1
compound no.	1	2	3	4	5	6	7	8
PrP 5UTR inh	-16	/	-3	-16	-26	-8	-18	/
BJeLR viability	-2	/	/	-1	-4	-6	1	/
Mtb hypoxia rep	-9	3	/	/	/	2	7	14
Mtb hypoxia rep growth	-2	5	/	/	/	6	0	5
Sa RN4220 lethal	0.7	14	2.3	/	/	-10	3.1	0.0
Bead autofluor	6247	/	4529	3119	2175	3544	8053	/
Sa ugtP lethal	0	0	-7	/	/	87*	8	13

9. COc1ccccc1NC(=O)C1=C(C)NC2=C(C(=O)CC(c3ccc(OC)c(OC)c3)C2)C1c1coc2ccccc2c1=O (stereo not drawn)
10. C[C@@H]1CC[C@]2(C(=O)O[C@@H]3O[C@H](CO)[C@@H](O)[C@H](O)[C@H]3O)CC[C@]3(C)C(=CCC4[C@@]5(C)C[C@@H](O)[C@H](O)[C@@](C)(C(=O)O[C@@H]6[C@H](O)C[C@@]7(C)C(CC[C@]8(C)C7CC=C7[C@H]9[C@](C(=O)O[C@@H]%10O[C@H](CO)[C@@H](O)[C@H](O)[C@H]%10O)(CC[C@@H](C)[C@@]9(C)O)CC[C@]78C)[C@@]6(CO)C(=O)O)C5CC[C@]43C)[C@@H]2[C@]1(C)O (stereo partly drawn)
11. Cc1nnc(NN=Cc2c(Cl)cccc2Cl)n1N
12. O=C(CCC1CCCCC1)NNC(=O)c1cnccn1
13. Cc1cccc(-n2c(C)nc3c(cnn3-c3ccc(F)cc3)c2=O)c1
14. COc1ccc(CN(CCO)CCO)cc1[N+](=O)[O-]
15. O=C(O)c1cc2sccc2s1
16. CCN(CC)S(=O)(=O)c1ccc(N2CCOCC2)c(NC(=O)c2ccc(OC)c([N+](=O)[O-])c2)c1
compound no.	9	10	11	12	13	14	15	16
PrP 5UTR inh	-7	3	/	-18	-19	-9	/	-5
BJeLR viability	-13	/	/	-6	3	/	-8	-6
Mtb hypoxia rep	3	0	3	11	/	-2	/	8
Mtb hypoxia rep growth	-2	1	6	21	/	-2	/	3
Sa RN4220 lethal	1.4	5.3	3.2	0.5	3.7	1.2	-2.8	8.0
Bead autofluor	2116	2732	/	9736	4142	2261	/	4614
Sa ugtP lethal	3	5	-4	0	9	-2	-1	6

# Profiles, quoted from the list. Order of values: PrP 5UTR inh | BJeLR viability | Mtb hypoxia rep | Mtb hypoxia rep growth | Sa RN4220 lethal | Bead autofluor | Sa ugtP lethal
# CCN(CC)S(=O)(=O)c1ccc(N2CCOCC2)c(NC(=O)c2ccc(OC)c([N+](=O)[O-])c2)c1 across the screens: -5 | -6 | 8 | 3 | 8.0 | 4614 | 6
# O=C(O)c1cc2sccc2s1 across the screens: / | -8 | / | / | -2.8 | / | -1
# COc1ccccc1NC(=O)C1=C(C)NC2=C(C(=O)CC(c3ccc(OC)c(OC)c3)C2)C1c1coc2ccccc2c1=O (stereo not drawn) across the screens: -7 | -13 | 3 | -2 | 1.4 | 2116 | 3

# Other results.
17. COc1ccccc1-c1nnc(SCc2nc3ccccc3[nH]2)n1C
18. Cc1cccc2cc(/C=C3\N=C(c4ccccc4)OC3=O)c(N3CCOCC3)nc12
19. COc1ccc(NC(=O)Cn2c(=O)oc3cc(S(=O)(=O)N4CCCC4)ccc32)c(OC)c1
20. O=C(NN=Cc1ccco1)c1cc(-c2ccncc2)nc2ccccc12
21. CCOc1cccc(OCCCCn2cnc3ccccc3c2=O)c1
22. Cc1cc(C)c(NC(=O)C(C)(C)C)c(Cl)c1
23. COc1cc(C(=O)NCCOc2ccccc2)cc(OC)c1OC
24. Cc1ccc(S(=O)(=O)N2CCOC2C(Cl)(Cl)Cl)cc1 (stereo not drawn)
compound no.	17	18	19	20	21	22	23	24
PrP 5UTR inh	-32	-19	-15	/	-18	-15	4	2
BJeLR viability	-7	-10	5	/	0	-8	10	1
Mtb hypoxia rep	2	/	8	3	3	3	16	2
Mtb hypoxia rep growth	3	/	4	6	12	8	11	14
Sa RN4220 lethal	1.3	2.6	1.0	0.6	17	-11	-2.6	1.7
Bead autofluor	11093	3098	5410	/	4719	/	3823	3922
Sa ugtP lethal	-2	3	10	-2	4	-6	-1	11

25. CCc1noc(C)c1C(=O)Nc1nc(-c2ccccc2)cs1
26. O=C1CSC(=Nc2ccccc2Cl)N1
27. Clc1ccc(-c2n[nH]c3c2CCCC3)cc1
28. COc1cc2[nH]c(=O)n(CCCCCC(=O)NCCCN3CCOCC3)c(=O)c2cc1OC
29. Cc1nnc2sc(-c3csc4c3CCCC4)nn12
30. CCOC(=O)COc1nc2c(c(-c3ccco3)c1C#N)CCc1ccccc1-2
31. CCn1nc(C(=O)Nc2ccc(N3CCOCC3)cc2)c2ccccc2c1=O
32. CC1(C)Cc2c(cnn2-c2ccccc2)C(NC(=O)CCc2ccncc2)C1 (stereo not drawn)
compound no.	25	26	27	28	29	30	31	32
PrP 5UTR inh	-31	-37	-41	-20	-12	-13	/	-5
BJeLR viability	6	7	-6	7	0	-4	/	3
Mtb hypoxia rep	7	-5	-5	5	5	-1	0	7
Mtb hypoxia rep growth	3	-10	-5	1	-5	0	10	4
Sa RN4220 lethal	-0.4	4.2	-3.7	0.3	6.0	6.1	3.5	0.8
Bead autofluor	?	5377	2340	9081	6488	3921	?	5905
Sa ugtP lethal	5	-2	3	-6	-5	0	6	2

33. COc1cccc(C=NNc2ncnc(Cl)c2N)c1O
34. O=c1cc(C(F)(F)F)[nH]c2c(C(F)(F)F)cccc12
35. Cc1ccc(Cn2cc(C=O)c(-c3ccc(F)cc3)n2)cc1
36. CCc1c(C(=O)NNC(=S)NC2CCCCC2)csc1C
37. Cc1nc(-c2ccc3c(c2)OCCCO3)cs1
38. COc1ccc(CCNC(=O)C2CCN(C(=O)N(C)C)CC2)cc1OC
39. Cn1nc(C(=O)OCC(=O)NCCc2ccccc2)c2ccccc2c1=O
40. Cc1ccc(S(=O)(=O)CC(=O)Nc2ccccn2)cc1
compound no.	33	34	35	36	37	38	39	40
PrP 5UTR inh	/	9	-56	-23	-68	-35	-2	-9
BJeLR viability	/	6	9	2	-11	-1	1	-7
Mtb hypoxia rep	6	/	0	14	12	5	9	-5
Mtb hypoxia rep growth	9	/	3	5	7	1	5	-9
Sa RN4220 lethal	26	/	1.0	6.1	9.2	4.8	2.6	2.8
Bead autofluor	/	2942	4080	3412	5939	4462	4456	4578
Sa ugtP lethal	29	/	4	14	6	10	12	7

# Structures listed so far containing fluorine, in the order listed:
13. Cc1cccc(-n2c(C)nc3c(cnn3-c3ccc(F)cc3)c2=O)c1
34. O=c1cc(C(F)(F)F)[nH]c2c(C(F)(F)F)cccc12
35. Cc1ccc(Cn2cc(C=O)c(-c3ccc(F)cc3)n2)cc1
compound no.	13	34	35
PrP 5UTR inh	-19	9	-56
BJeLR viability	3	6	9
Mtb hypoxia rep	/	/	0
Mtb hypoxia rep growth	/	/	3
Sa RN4220 lethal	3.7	/	1.0
Bead autofluor	4142	2942	4080
Sa ugtP lethal	9	/	4

# (more compounds)
41. CC(=NNC(=S)NC1CCCCC1)c1ccc(C#N)cc1
42. CCN(CC(=O)Nc1ccc(NC(C)=O)cc1)C(=O)C1CCC1
43. O=C(COC(=O)c1ccc(OC(F)(F)F)cc1)Nc1ncccn1
44. COc1ccc(N(CC(=O)Nc2ccc3c(c2)OCCO3)S(=O)(=O)c2cccnc2)cc1
45. COc1ccc(CN2CCCCC2c2cccnc2)c(OC)c1C (stereo not drawn)
46. O=C(CCC1CCCC1)c1c(O)c2ccccc2oc1=O
47. COCC(C)n1c(C)cc(C(=O)COc2ccc(C)nc2[N+](=O)[O-])c1C (stereo not drawn)
48. COc1ccc(-c2nc3ccccc3o2)cc1OC
compound no.	41	42	43	44	45	46	47	48
PrP 5UTR inh	/	-17	-10	-23	-22	-14	4	-48
BJeLR viability	/	7	/	/	-15	10	7	8
Mtb hypoxia rep	1	4	12	/	10	1	9	/
Mtb hypoxia rep growth	3	-3	4	/	-3	11	3	/
Sa RN4220 lethal	2.0	0.6	1.1	2.7	4.1	100*	5.4	/
Bead autofluor	/	6816	2945	6434	8738	6601	3384	3003
Sa ugtP lethal	-21	2	8	4	1	100*	15	/

49. O=C(Nc1ccc2oc(-c3ccccc3F)nc2c1)c1ncn[nH]1
50. COc1ccc(-n2c(C)nnc2SCC(=O)N2C(C)CCCC2C)cc1 (stereo not drawn)
51. CN(C)c1ccccc1C(=O)N1CCCC(C(=O)c2ccc3ccccc3c2)C1 (stereo not drawn)
52. COc1ccc(-n2nc(C(=O)c3cccs3)cc(-c3nc4ccccc4[nH]3)c2=N)cc1
53. O=C1COc2ccc(C(=O)COC(=O)c3cc(S(=O)(=O)NCc4ccccc4)ccc3O)cc2N1
54. CCCC(=O)Nc1ccccc1NC(C)=O
55. COc1ccc(NC(=O)CSc2nnc(-c3cccs3)n2Cc2ccco2)cc1OC
56. O=C(c1cncs1)N1CCCC(CNS(=O)(=O)c2cccs2)C1 (stereo not drawn)
57. Cc1cc(C)c(C2C(C#N)=C(N)Oc3n[nH]c(C)c32)cc1CN1CCOCC1 (stereo not drawn)
58. CC(=O)[C@@]1(O)CC[C@H]2[C@@H]3C[C@H](C)C4=CC(=O)C=C[C@]4(C)[C@@]3(F)[C@@H](O)C[C@@]21C
59. COc1ccc(NS(=O)(=O)c2ccc(C)c(C(=O)N3CCC3)c2)cc1
compound no.	49	50	51	52	53	54	55	56	57	58	59
PrP 5UTR inh	-99	-1	-2	-5	-39	-10	-34	-7	-26	-3	-24
BJeLR viability	4	-3	-7	-9	-1	-9	-2	-2	3	-12	-2
Mtb hypoxia rep	/	3	-7	-5	-3	0	3	2	6	/	5
Mtb hypoxia rep growth	/	-2	-4	2	6	4	9	0	7	/	5
Sa RN4220 lethal	/	1.3	0.7	-0.3	4.8	-2.0	1.3	-0.2	4.1	/	0.9
Bead autofluor	3127	7901	4588	6796	4100	3300	10291	3862	10878	6284	?
Sa ugtP lethal	/	-3	10	1	12	-3	13	8	1	/	3

# Copied from above: entries 53 to 59
53. O=C1COc2ccc(C(=O)COC(=O)c3cc(S(=O)(=O)NCc4ccccc4)ccc3O)cc2N1
54. CCCC(=O)Nc1ccccc1NC(C)=O
55. COc1ccc(NC(=O)CSc2nnc(-c3cccs3)n2Cc2ccco2)cc1OC
56. O=C(c1cncs1)N1CCCC(CNS(=O)(=O)c2cccs2)C1 (stereo not drawn)
57. Cc1cc(C)c(C2C(C#N)=C(N)Oc3n[nH]c(C)c32)cc1CN1CCOCC1 (stereo not drawn)
58. CC(=O)[C@@]1(O)CC[C@H]2[C@@H]3C[C@H](C)C4=CC(=O)C=C[C@]4(C)[C@@]3(F)[C@@H](O)C[C@@]21C
59. COc1ccc(NS(=O)(=O)c2ccc(C)c(C(=O)N3CCC3)c2)cc1
compound no.	53	54	55	56	57	58	59
PrP 5UTR inh	-39	-10	-34	-7	-26	-3	-24
BJeLR viability	-1	-9	-2	-2	3	-12	-2
Mtb hypoxia rep	-3	0	3	2	6	/	5
Mtb hypoxia rep growth	6	4	9	0	7	/	5
Sa RN4220 lethal	4.8	-2.0	1.3	-0.2	4.1	/	0.9
Bead autofluor	4100	3300	10291	3862	10878	6284	?
Sa ugtP lethal	12	-3	13	8	1	/	3

# Bioassay records: PubChem, several laboratories
